PABP polyA inh = blocks human PABP binding to poly(A) RNA; actives 1% (n = 290,000); P11940; fluorescence polarization; inhibition, % at 35 µM;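 active = 50% or more with normal probe brightness, or confirmed in later tests; about a fifth of its hits are not listed in these tables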;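 also: calls also rest on retests at 20 µM and on dose response follow-up; controls were probe without protein and protein plus probe with vehicle; some compounds called inactive have numbers as strong as hits; many hits fall short of the cut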
Target sequence (P11940 whole entry, looked up): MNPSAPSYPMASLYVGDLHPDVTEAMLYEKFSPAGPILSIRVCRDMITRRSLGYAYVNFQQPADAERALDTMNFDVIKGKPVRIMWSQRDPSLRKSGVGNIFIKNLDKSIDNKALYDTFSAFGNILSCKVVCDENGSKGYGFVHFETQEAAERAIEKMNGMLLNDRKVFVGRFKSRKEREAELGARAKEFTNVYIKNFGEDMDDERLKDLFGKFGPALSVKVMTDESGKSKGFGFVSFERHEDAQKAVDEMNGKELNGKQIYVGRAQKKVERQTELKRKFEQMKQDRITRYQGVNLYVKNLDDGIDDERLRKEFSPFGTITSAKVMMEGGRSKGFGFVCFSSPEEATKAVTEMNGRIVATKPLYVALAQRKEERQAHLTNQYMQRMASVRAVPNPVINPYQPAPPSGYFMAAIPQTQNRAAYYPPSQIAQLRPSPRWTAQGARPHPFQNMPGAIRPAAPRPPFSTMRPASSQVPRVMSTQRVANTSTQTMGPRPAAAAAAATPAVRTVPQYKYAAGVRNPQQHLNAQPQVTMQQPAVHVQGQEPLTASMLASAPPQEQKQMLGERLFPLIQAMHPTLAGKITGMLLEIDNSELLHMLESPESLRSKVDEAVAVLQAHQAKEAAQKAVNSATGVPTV
Rce1 inhib = inhibitors of yeast Ras-converting enzyme; Q03530; yeast membranes, quenched prenylated peptide cleavage fluorescence; calls only; actives 0.27% (n = 290,000); AID 2563;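 active = fall in fluorescence gain of 50% or more versus controls, with final raw signal at or below 3038400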;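 also: plate controls were neutral control wells for no effect and wells lacking membranes for full effect; tested at 10 µM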
Target sequence (Q03530 whole entry, looked up): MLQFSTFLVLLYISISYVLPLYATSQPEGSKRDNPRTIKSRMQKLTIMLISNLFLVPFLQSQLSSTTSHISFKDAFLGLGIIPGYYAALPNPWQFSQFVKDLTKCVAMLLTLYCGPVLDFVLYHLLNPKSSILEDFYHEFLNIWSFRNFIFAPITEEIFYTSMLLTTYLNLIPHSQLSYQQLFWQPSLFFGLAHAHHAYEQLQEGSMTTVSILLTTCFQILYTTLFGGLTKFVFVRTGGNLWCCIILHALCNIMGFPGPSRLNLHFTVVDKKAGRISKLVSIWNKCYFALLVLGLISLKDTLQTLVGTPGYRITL
eIF4H FP inh = inhibitors of RNA binding by human eIF4H; Q15056; AID 2012; actives 0.94% (n = 290,000); eIF4H fluorescence polarization binding assay; inhibition, % at 35 µM;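 active = 50% or more with normal probe brightness, or confirmed in later tests; about a fifth of its hits are not listed in these tables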;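 also: calls also rest on retests at 20 µM and on dose response follow-up; 0% = protein and probe with vehicle and 100% = probe without protein; strong numbers were not always called active; many hits fall short of the cut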
CSC inhib = blocks cancer stem cells; actives 1.1% (n = 300,000); cancer stem cell-like cells viability, luminescence; inhibition, % at 7.5 µM;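 active = mean at 75% or more and at least half the replicates too; tested in HMLE shEcad cells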;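 also: 0% = median of negative and 100% = median of positive control wells; the first replicate is given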
Yeast UUG start = alters start codon recognition fidelity in yeast; S. cerevisiae UUG-firefly luciferase reporter, luminescence/redox ratio; activity score, % at 18.7 µM; actives 0.13% (n = 350,000);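 active = replicate mean at a twofold rise or more, about +100% in these data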;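 also: firefly luciferase made from a UUG start codon reports start codon fidelity; reporter light over untreated wells divided by growth signal over untreated wells; some hits fall short of that in this replicate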
MT1-MMP act inh = inhibitors of human MT1-MMP activation; GFP/RFP ratio change, % at 20 µM; AID 651647; actives 0.061% (n = 360,000); HT1080 RFP-PRO-GFP cells, GFP/RFP ratio fluorescence, overnight; percent of plate control window, DMSO zero; P50281;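 active = GFP/RFP ratio change of at least 30% with cell ATP level not reduced by more than half and red fluorescence within 50% of control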; also: strong numbers were not always called active
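Read-out: GFP/RFP fluorescence ratio; Test system: RFP-PRO-GFP reporter HT1080 cells; Compound dosing: single-point 20 µM compound, 1% DMSO; Times: overnight compound exposure at 37 °C.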
Env fusion inh = inhibitors of HIV Env-mediated cell fusion | HeLa-JRFL Env/CEM21 cell fusion, luciferase | inhibition, % at 12.3 µM | actives 1.1% (n = 360,000) | AID 651610;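 active = mean replicate inhibition score of at least 50 and every replicate individually at or above 50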;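 also: 0% = plate neutral controls and 100% = maraviroc near 300 nM; one replicate is shown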
eIF4H FP inh retest = further read-out of eIF4H FP inh, marked with its call; inhibition, %; compound at 20 µM; confirmation average;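 mean of two retest wells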
PABP polyA inh retest = further read-out of PABP polyA inh, marked with its call; inhibition, %; compound at 20 µM; confirmation repeats;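 mean of two retest wells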
MT1-MMP act inh RFP = second read-out of MT1-MMP act inh, no call of its own (marks repeat the call); RFP signal change, %; measured here: RFP expression control read;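 0 = vehicle wells; hits needed this value within 50% of zero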
* marks the source's active call; other numbers are inactive results; i = inactive; · = no result given; & = joins results of further samples.

SMILES	PABP polyA inh	Rce1 inhib	eIF4H FP inh	CSC inhib	Yeast UUG start	MT1-MMP act inh	MT1-MMP act inh RFP	Env fusion inh	others
c1ccc(CSc2nnc3ccc(-c4ccncc4)nn23)cc1	-6	i	-6	-7	-11	-14	-6	-12
COc1cccc(CN(C)C(=S)Nc2cccc(C)c2)c1	4	i	12	·	·	3	3	-4
Cc1ccc(-n2ccnc(SCC(=O)NC3CCCCC3)c2=O)cc1F	·	i	·	16	-13	-9	2	6
Cc1cc(C)cc(N(CC(=O)Nc2cc(C)ccc2C)S(=O)(=O)c2c(C)[nH]c(=O)[nH]c2=O)c1	10	i	7	·	-12	-1	2	-5
Cc1cccc(NS(=O)(=O)c2cccc(C(=O)N3CCCC3)c2)c1	·	i	·	-11	-14	1	2	·
COc1ccc(CNC(=O)c2cc(-c3cccs3)on2)cc1	-11	i	-11	·	-17	1	1	-59
O=[N+]([O-])c1ccc(CCNc2cccc3ccccc23)c([N+](=O)[O-])c1	7	i	-2	-10	·	-4	3	·
COc1ccccc1NC(=O)Nc1ccc(F)c(F)c1	-8	·	0	8	-7	-2	1	9
CN(C)CCN(C(=O)C1=COCCO1)c1nc2ccc(Cl)cc2s1	-1	i	-13	11	-6	3	2	-72
Cc1ccc(CS(=O)(=O)c2cn(CC(=O)Nc3ccon3)c3ccccc23)cc1	·	i	·	-6	·	3	0	0
CC(C)=CC(=O)Nc1nnc(-c2ccccc2C)s1	-11	i	2	-9	·	1	4	-14
N#Cc1ccc(CSc2nnc(NC(=O)c3ccc4ncsc4c3)s2)cc1	-7	i	-3	5	·	2	-1	4
CCN(CC)S(=O)(=O)c1ccc(NC(=O)Nc2cccc(C(F)(F)F)c2)cc1	-11	i	1	83*	-22	-10	-30	96*
Nc1cccc2c1C(=O)N(c1ccccc1)C2=O	·	i	·	-3	-11	-3	0	-22
CCOc1ccc(N(CC(=O)Nc2ccc(OC)cc2)S(=O)(=O)c2c(C)[nH]c(=O)[nH]c2=O)cc1	-17	i	0	-8	·	5	3	-1
COc1ccccc1C1C2=C(COC2=O)Nc2cc3c(cc21)OCO3 (stereo not drawn)	9	i	0	63	-7	26	-1	i
Cc1nonc1NC(=O)CSc1nc(C23CC4CC(CC(C4)C2)C3)nc2ccccc12	9	i	-14	29	-25	3	-15	24
CCNC(=O)N(C)c1c(CC)nc2ccc(C(=O)N3CCN(C(=O)c4ccco4)CC3)cn12	·	·	·	·	-16	2	5	-19
O=C(NCC(O)c1ccc([N+](=O)[O-])cc1)C1CCCCC1 (stereo not drawn)	-3	i	-2	-14	·	0	3	8
Cc1cccc(N2CCN(S(=O)(=O)c3ccc(Cl)nc3)CC2C)c1 (stereo not drawn)	·	·	·	-8	·	-3	-4	11
Cc1ccccc1CSc1nnc([C@@H]2CCCN2)o1	4	i	6	7	·	0	3	13
COc1ccc2c(c1OC)CN(C)CCc1cc3c(cc1C(O)C2)OCO3 (stereo not drawn)	4	i	2	0	-8	-7	0	·
Cc1c(OC(C)C(=O)NCCCN2CCOCC2)ccc2c3c(c(=O)oc12)CCC3 (stereo not drawn)	·	i	·	-9	2	5	5	-1
Cc1cc(C(=O)N/N=C/c2ccc(C)s2)n[nH]1	-4	i	-1	·	-17	-1	-2	-28
CN(C[C@H](c1ccccc1)N(C[C@H](Cc1ccccc1)N(CCc1ccccc1)N=O)N=O)N=O	-10	i	6	6	-4	-6	-8	32
C=CCNC(=S)Nc1c(C(=O)OC)[nH]c2cc(OC)ccc12	3	i	4	2	-16	0	-8	-10
COc1ccc(/C(C)=N\Nc2nc(-c3ccc(Cl)cc3)cc(C(F)(F)F)n2)cc1OC	-10	i	-7	-8	·	0	-2	6
CS(=O)(=O)c1ccccc1C(=O)Nc1cccc(-c2nc3ccccc3o2)c1	2	i	-10	-7	-18	3	1	-7
COc1ccc2nc(NCCCO)[nH]c2c1	21	i	7	-10	-10	8	8	·
O=C(CN1CCCCCCC1)N/N=C/c1ccc([N+](=O)[O-])o1	23	·	47	-1	-16	0	-6	-3

Entries listed so far that have an aryl methoxy group:
SMILES	PABP polyA inh	Rce1 inhib	eIF4H FP inh	CSC inhib	Yeast UUG start	MT1-MMP act inh	MT1-MMP act inh RFP	Env fusion inh	others
COc1cccc(CN(C)C(=S)Nc2cccc(C)c2)c1	4	i	12	·	·	3	3	-4
COc1ccc(CNC(=O)c2cc(-c3cccs3)on2)cc1	-11	i	-11	·	-17	1	1	-59
COc1ccccc1NC(=O)Nc1ccc(F)c(F)c1	-8	·	0	8	-7	-2	1	9
CCOc1ccc(N(CC(=O)Nc2ccc(OC)cc2)S(=O)(=O)c2c(C)[nH]c(=O)[nH]c2=O)cc1	-17	i	0	-8	·	5	3	-1
COc1ccccc1C1C2=C(COC2=O)Nc2cc3c(cc21)OCO3 (stereo not drawn)	9	i	0	63	-7	26	-1	i
COc1ccc2c(c1OC)CN(C)CCc1cc3c(cc1C(O)C2)OCO3 (stereo not drawn)	4	i	2	0	-8	-7	0	·
C=CCNC(=S)Nc1c(C(=O)OC)[nH]c2cc(OC)ccc12	3	i	4	2	-16	0	-8	-10
COc1ccc(/C(C)=N\Nc2nc(-c3ccc(Cl)cc3)cc(C(F)(F)F)n2)cc1OC	-10	i	-7	-8	·	0	-2	6
COc1ccc2nc(NCCCO)[nH]c2c1	21	i	7	-10	-10	8	8	·

The results go on:
SMILES	PABP polyA inh	Rce1 inhib	eIF4H FP inh	CSC inhib	Yeast UUG start	MT1-MMP act inh	MT1-MMP act inh RFP	Env fusion inh	others
CCOC(=O)C1=C(C)NC(C)=C(C(=O)OC)C1c1cccc([N+](=O)[O-])c1 (stereo not drawn)	-8&9	i	-5&-6	6	-20	1	2	12
CN1CCN(C(=O)CN2C(=O)NC(C)(c3ccc4ccccc4c3)C2=O)CC1 (stereo not drawn)	·	·	·	4	-5	-2	0	·
O=C(Nc1cccc(F)c1)C1CCN(C(=O)c2ccc(Br)cc2)CC1	2	i	2	·	13	6	3	-115
COC(=O)c1cc(OC)c(OC)cc1NC(=O)C1CCCO1 (stereo not drawn)	-2	i	-7	15	-10	0	0	-29
CCCc1c(C(=O)N/N=C(\C)c2ccc3c(c2)OCO3)nnn1-c1nonc1N	·	·	·	·	-23	0	2	-5
COc1ccc(-c2cc3c(=O)n(CC(=O)NCCCN4CCC(N5CCCCC5)CC4)ncn3n2)cc1	16	i	1	18	5	2	3	-5
CN(Cc1ccccc1)C(=O)COC(=O)CNS(=O)(=O)c1ccc2ccccc2c1	·	i	·	6	-15	4	6	-1
COc1ccc(/C=N/OCC(=O)Nc2nc3ccccc3s2)cc1OC	2	i	4	-5	-1	5	1	·
CN(C)c1ncccc1-c1nc2ccccc2s1	-16	i	-3	-7	·	2	-1	-7
Oc1ccc2c(ccc3[nH]cnc32)c1	4	i	-8	-15	·	-1	-3	11
CCCNC(=O)C1(CC2CC(c3ccccc3)=NO2)CCN(C(=O)c2cc(OCC)c(OCC)c(OCC)c2)CC1 (stereo not drawn)	·	i	·	-11	-5	4	-2	-11
Cc1cc(C(F)(F)F)n(-c2ccc(N)cc2)n1	-2	i	-6	-14	·	0	0	-2
O=C1OC(/C(=C\NCc2ccccc2)[N+](=O)[O-])c2ccccc21 (stereo not drawn)	8	i	-4	4	·	2	3	0
C=CCn1c(O)c(N=Nc2ccccc2O)c2ccccc21	·	·	·	96*	-17	-96	6	-13
Cc1onc(-c2c(Cl)cccc2Cl)c1NC(=O)N1CCSCC1	9	i	-3	9	-9	0	0	-6
O=C(Nc1ccc2c(c1)CCC2)C1CCCO1 (stereo not drawn)	17	i	5	10	-17	1	3	·
COc1ccc(/C(C)=N/Nc2nc3ccccc3nc2C)cc1OC	9	i	6	-8	·	1	-6	-28
CC1CCN(CC(O)COC2CC(C)CCC2C(C)C)CC1 (stereo not drawn)	-1	i	-20	0	·	0	-1	20
Cn1nc(-c2ccccc2)c(CSc2cccc(Cl)c2)c1Cl	-2	i	-2	-3	17	-10	-16	·
COc1ccc(C)cc1N(CC(=O)NCCSCc1cccc(Cl)c1)S(C)(=O)=O	1	i	0	13	-20	-1	-9	46
O=C(COc1cccc2c1CCN(Cc1ccccc1F)C2=O)N1CCCCC1	7	i	-8	·	·	0	-7	4
O=[N+]([O-])c1ccccc1S(=O)(=O)NC1CCCCCCC1	1	·	-15	-7	-10	1	-7	9
COC(=O)CS(=O)(=O)c1ccc(C)cc1	0	i	-3	-11	·	-2	2	-12
COc1cc(S(=O)(=O)N2CCOCC2)ccc1NC(=O)COC(=O)CC12CC3CC(CC(C3)C1)C2	-12	i	-6	-13	-3	-8	-10	9
CC(=O)N1CCC(N(CCN2CCOCC2)C(=S)Nc2c(C)cccc2C)CC1	16	i	4	-10	·	1	6	7
O=C(NNC(=O)c1cc2ccccc2o1)c1ccc(F)cc1	·	·	·	·	-21	2	0	-27
Cc1cc(C)nc(N/N=C/c2c[nH]c3ccccc23)n1	2	i	-8	-7	·	2	-5	-4
CC(C)COc1ccc(C(=O)N/C(=C/c2cccc([N+](=O)[O-])c2)C(=O)O)cc1	-3	i	1	-10	-8	1	1	-1
COc1cc(C(O)P(=O)(OCC(C)C)c2ccc(N(C)C)cc2)cc(OC)c1OC (stereo not drawn)	4	i	0	-2	·	-4	-2	0
O=C(CS(=O)c1ccc(F)cc1)Nc1ccccc1Cl (stereo not drawn)	-2	i	0	15	·	-1	3	-11
Cc1ccc(S(=O)(=O)N2C(=O)CCC2C(=O)N2CCN(C)CC2)cc1 (stereo not drawn)	1	i	2	-15	-17	-6	0	-10
Cc1ccc2nc(-c3cccc(Br)c3)c(Cc3ccccc3)n2c1	·	·	·	·	-14	-2	-5	-17
NC1=NN(c2cccc(C(=O)O)c2)C(=O)C1	-8	i	78	-14	5	1	3	13	eIF4H FP inh retest=-3;PABP polyA inh retest=4
Cc1nc(NC(=O)CCl)sc1C(=O)N(C)C	2	i	-5	7	·	1	-2	24
Cc1ccc(S(=O)(=O)N(C)c2nonc2C)cc1	-2	i	-3	-9	-13	0	4	4
O=C(CNC(=O)c1ccccc1)OC1CCCCC1	45	i	2	-13	·	4	2	-18
CC(=O)c1sc(NC(=O)CCS(=O)(=O)c2ccc(C)cc2)nc1C	·	i	·	6	-3	3	2	3
CCCN(C(=O)Cn1ncc2c([nH]c3ccccc32)c1=O)c1ccccc1C	-5	i	-9	-11	-10	3	-2	-6
Cc1cc[n+](CC(=O)Nc2cccc(C)c2)cc1	-3	i	-9	-15	-3	1	0	-4

Arranged by count of non-hydrogen atoms (rising): part of the list above
SMILES	PABP polyA inh	Rce1 inhib	eIF4H FP inh	CSC inhib	Yeast UUG start	MT1-MMP act inh	MT1-MMP act inh RFP	Env fusion inh	others
Cc1ccc(S(=O)(=O)N(C)c2nonc2C)cc1	-2	i	-3	-9	-13	0	4	4
O=C(CNC(=O)c1ccccc1)OC1CCCCC1	45	i	2	-13	·	4	2	-18
CC(=O)c1sc(NC(=O)CCS(=O)(=O)c2ccc(C)cc2)nc1C	·	i	·	6	-3	3	2	3
Cc1ccc(S(=O)(=O)N2C(=O)CCC2C(=O)N2CCN(C)CC2)cc1 (stereo not drawn)	1	i	2	-15	-17	-6	0	-10

Some of the compounds tested; count on the stated rates, not on these rows.
